Mtb H37Rv – Confirmatory growth inhibition assay against Mycobacterium tuberculosis H37Rv, potency (AID 1949); inhibition, % at 10 µg/mL; hits with a dose series show IC50 in µg/mL; most inactive calls were filed without a number and no value below 0 was filed; actives 1.6% (n = 100,000);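 active = confirmed in a dose series; inconclusive = about 50% or more but not retested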;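 also: bacteria grown 7 days with compound before Alamar blue readout; 0% = untreated bacteria and 100% = reference antibiotic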
* marks the source's active call; other numbers are inactive results; i = inactive; u = inconclusive. These rows are one share of the data; rates above refer to the full screens.

Molecule,Mtb H37Rv
Cc1cccc(C)c1NS(=O)(=O)c1ccc(NC(=O)CSc2ccccc2)cc1,i
CC1(C)CC(=O)C2=C(C1)Nc1nc(SCc3ccccc3Cl)[nH]c(=O)c1C2c1cccs1 (stereo unspecified),i
O=C(CSc1ncn[nH]1)Nc1nsc(-c2ccc(Cl)cc2)n1,i
CC(C)C(=O)Nc1cccc(C(=O)Nc2ccc(F)cc2)c1,i
Cc1c(N2C(=O)C3C4c5ccccc5C(c5ccccc54)C3C2=O)c(=O)n(-c2ccccc2)n1C (stereo unspecified),i
CC(C)(c1ccccc1)n1nnc(-c2ccccc2)n1,1%
C1=CC2CC1CC2CN1CCC(N(CCc2ccccc2)Cc2ccccc2)CC1 (stereo unspecified),1.4µg/mL*
O=C(Nc1ccc(Cl)cc1Cl)c1ccc(Cl)cc1Cl,i
COc1ccc(OCc2ccc(Cl)cc2)cc1,13%
CCCCNC(=O)c1c(NC(=O)c2ccccc2)sc(C)c1C,i
CCOCCC(=O)Nc1cc(C)cc(C)c1,i
Cc1cc(NC(=S)NC(=O)COc2ccc(C(C)C)cc2)ccc1NC(=O)c1ccco1,i
CCC(=O)Nc1ccc(N2CCN(C(=O)c3ccc(Cl)cc3)CC2)cc1,8%
COc1ccc(CNC2CCCCC2)c2ccccc12,1%
Oc1c(C(Nc2cccnc2)c2cccs2)ccc2cccnc12 (stereo unspecified),4%

Copied from the list:
For Mtb H37Rv, Oc1c(C(Nc2cccnc2)c2cccs2)ccc2cccnc12 (stereo unspecified) has the entry 4%
For Mtb H37Rv, C1=CC2CC1CC2CN1CCC(N(CCc2ccccc2)Cc2ccccc2)CC1 (stereo unspecified) has the entry 1.4µg/mL*
For Mtb H37Rv, CC(C)(c1ccccc1)n1nnc(-c2ccccc2)n1 has the entry 1%

(list continues)
Molecule,Mtb H37Rv
Cc1ccc2nc(-c3ccc(N4C(=O)CC(N5CCN(CCOCCO)CC5)C4=O)cc3)sc2c1 (stereo unspecified),i
O=C(COc1ccc([N+](=O)[O-])cc1)Nc1ccccc1N1CCOCC1,4%
CCCCSc1nc2sc(C)c(C)c2c(=O)n1-c1ccccc1,i
O=C(Cc1cccs1)NCc1cccnc1,2%
COc1cc(C=O)ccc1OCc1ccccc1F,i
O=C(Nc1ccc(Cc2ccc(O)c(NC(=O)c3ccccc3F)c2)cc1O)c1ccccc1F,2%
COc1ccc(C(=O)NC(=S)Nc2c(C)cccc2C)cc1Cl,i
O=C(Nc1ccc2c(c1)OCO2)c1cccc(C(F)(F)F)c1,i
CCCCOc1cc(Br)c(CNC(CC)CO)cc1OC (stereo unspecified),i
Cc1ccc(N(C(C)C(=O)Nc2ccccc2C(=O)N2CCOCC2)S(C)(=O)=O)cc1C (stereo unspecified),i
CN1C(=O)c2ccc(NC(=O)C34CC5CC(CC(C5)C3)C4)cc2C1=O,i
CCOC(=O)c1ccc(Nc2ncnc(N)c2[N+](=O)[O-])cc1,i
COc1ccc(-c2cc(C(=O)Nc3cccc(Cl)c3)c3ccccc3n2)c(OC)c1,24%
Cc1ccc(NC(=O)c2ccc(Cl)cc2Cl)c(C)c1,14%
O=C(O)C1C2C=CC(C2)C1C(=O)Nc1nc(-c2ccc(Cl)cc2Cl)cs1 (stereo unspecified),i

The list continues:
Molecule,Mtb H37Rv
Cc1ccc(C2CC(=O)Nc3cc(C)c(C)cc32)cc1 (stereo unspecified),i
CCOc1ccccc1NC(=O)C(C)c1ccccc1 (stereo unspecified),i
NCCNCCCOc1cccc(Br)c1,i
CC(=O)NC(=S)Nc1ccc(C)cc1C,i
Cc1c(Cl)ccc(S(=O)(=O)NCC2CCCO2)c1Cl (stereo unspecified),i
O=C(NCc1ccc(-c2nc3ccccc3o2)cc1)c1cccs1,i
O=C(CCCN1C(=O)c2cccc3cccc(c23)C1=O)Nc1ccccc1C(F)(F)F,i
O=C(Nc1ccc(O)c(-c2nc3ccccc3s2)c1)c1sc2ccccc2c1Cl,i
O=C(CSc1ccc2ccccc2n1)Nc1nc(-c2ccccc2)ns1,1%
O=S(=O)(Nc1ncccn1)c1ccc(NC(=S)N2CCN(c3ncccn3)CC2)cc1,i
CCCn1c(SCC(=O)Nc2c(C)cc(Br)cc2CC)nnc1-c1ccccc1,i
Nc1c(C(=O)Nc2ncccn2)sc2nc(-c3ccccc3)cc(C(F)(F)F)c12,2%
O=S(=O)(c1ccc2oc3ccc(S(=O)(=O)N4CCCCC4)cc3c2c1)N1CCCCC1,i
CSc1ccc(S(=O)(=O)N2CCCCC2)cc1,i
O=C(COc1ccc2ccccc2c1)N1CCN(C2CCCCC2)CC1,i

Exported field by field: entries from further up
Nc1c(C(=O)Nc2ncccn2)sc2nc(-c3ccccc3)cc(C(F)(F)F)c12
  Mtb H37Rv: 2%
O=S(=O)(c1ccc2oc3ccc(S(=O)(=O)N4CCCCC4)cc3c2c1)N1CCCCC1
  Mtb H37Rv: i
CSc1ccc(S(=O)(=O)N2CCCCC2)cc1
  Mtb H37Rv: i

(listing goes on)
Molecule,Mtb H37Rv
O=C1CC2OCC=C3CN4CCC56c7cc([N+](=O)[O-])ccc7N1C5C2C3CC46 (stereo unspecified),i
O=C(C#Cc1ccccc1)c1ccc([N+](=O)[O-])cc1,i
CCC(C)c1ccc(OCC(=O)NNC(=O)CCc2ccccc2)cc1 (stereo unspecified),i
Cc1ccc(NC(=O)CN(c2cccc(Br)c2)S(C)(=O)=O)cc1C,i
Cc1ccc(S(=O)(=O)N2CCC(C(=O)N3CC4(C)CC3CC(C)(C)C4)CC2)cc1 (stereo unspecified),1%
COc1cc2c(cc1OC)C(Cc1ccc(O)cc1)N(C)CC2 (stereo unspecified),i
COc1ccc(OC(C)C(=O)N2CCOCC2)cc1 (stereo unspecified),i
Cc1ccc(/C=C(\C#N)S(=O)(=O)c2ccccc2)o1,i
Cc1cc(F)ccc1S(=O)(=O)N(C(=O)c1ccncc1)c1ccc(OC(=O)c2ccncc2)cc1,i
CCn1c(SCC(=O)Nc2cccc3ccccc23)nnc1-c1ccccc1,2%
O=C(CSc1ncnc2scc(-c3ccc(Br)cc3)c12)N1CCCCC1,i
O=C(NCC1CCCO1)c1ccc(CSc2ccc(Cl)cc2)cc1 (stereo unspecified),i
COc1ccc(NC(=O)N2CC(C)OC(C)C2)cc1OC (stereo unspecified),i
Cc1onc(-c2c(F)cccc2Cl)c1C(=O)NC(=S)NCc1cccnc1,i
COc1ccc(F)cc1S(=O)(=O)Nc1ccccc1C(=O)O,i

Next section:
Molecule,Mtb H37Rv
O=C(CSc1cccc2cccnc12)Nc1nc(-c2ccccc2)cs1,i
O=C(Cc1ccc(Cl)cc1)Nc1ccc2[nH]c(=O)[nH]c2c1,i
CS(=O)(=O)Nc1ccc(-c2ccc(N)cc2)cc1[N+](=O)[O-],i
Cc1cc(C)cc(C(=O)NC(=S)Nc2sc3c(c2C(N)=O)CCC3)c1,i
CC(C)(C)N1C(=O)C2C(C1=O)C1C=CC2C12CC2 (stereo unspecified),i
Clc1ccc(SCCN2CCNCC2)cc1,i
O=C(Nc1ccc(F)cc1)Nc1ccc(C(=O)O)cc1,i
CC1=C(C(=O)Nc2ccc(F)cc2)C(c2ccc(N(C)C)cc2)NC(=O)N1 (stereo unspecified),i
CCc1cccc(C)c1NS(=O)(=O)c1cc(C)ccc1OC,i
Cc1ccc(Oc2nc(-c3cccnc3)nc3ccccc23)cc1C,16µg/mL*
Cc1ccc(NC(=O)CN(c2ccc(Cl)c(C(F)(F)F)c2)S(C)(=O)=O)cc1,i
CC(C)c1nnc(NC(=O)Cc2ccc(Cl)cc2)s1,i
CCOc1ccc(OCCCCN2CCC(C)CC2)cc1,i
CCN(C(=S)Nc1cccnc1)c1ccccc1,0%
COC(=O)c1ccc(Oc2ccccc2)c(I)c1,i

Structural class: the compounds so far with a furan ring, fused or not
Molecule,Mtb H37Rv
Cc1cc(NC(=S)NC(=O)COc2ccc(C(C)C)cc2)ccc1NC(=O)c1ccco1,i
O=S(=O)(c1ccc2oc3ccc(S(=O)(=O)N4CCCCC4)cc3c2c1)N1CCCCC1,i
Cc1ccc(/C=C(\C#N)S(=O)(=O)c2ccccc2)o1,i

Returning to the listing, starting two compounds before the break.
Molecule,Mtb H37Rv
CCN(C(=S)Nc1cccnc1)c1ccccc1,0%
COC(=O)c1ccc(Oc2ccccc2)c(I)c1,i
Cc1ccccc1NC(=O)CCCOc1cccc(C)c1C,i
Cc1ccnc(NC(=O)Nc2ccc(Cl)cc2Cl)c1,i
CC1=C(C)CC(C(=O)Nc2cccc(C)c2C)C(C(=O)O)C1 (stereo unspecified),i
O=C(O)Cn1nnnc1SCC(=O)Nc1ccc(F)cc1F,i
N#Cc1nc(-c2cccs2)oc1N1CCN(c2ccccc2)CC1,i
CCOc1ccc2ccccc2c1CNC,i
CCc1ccccc1N(CC(=O)Nc1ccc(C)c(C)c1)S(=O)(=O)c1ccccc1,i
CCC(Oc1ccccc1)C(=O)Nc1cccc(NC(=O)C(CC)Oc2ccccc2)c1 (stereo unspecified),0%
COc1ccc(NC(=O)CCC(=O)O)c(OC)c1,i
CC(=O)Nc1cccc(OCC(=O)Nc2ccc(Cl)c(Cl)c2)c1,i
Cc1cc(OCC(=O)NCc2ccc(F)cc2)cc(C)c1Br,11%
CC(NC(=O)c1cc(Br)ccc1Cl)c1ccccc1 (stereo unspecified),i
O=c1ccnc(NCCc2ccccc2)[nH]1,i
CC(=O)Nc1ccc(NC(=O)c2c(-c3c(Cl)cccc3Cl)noc2C)cc1,i
O=C(Nc1c(C(=O)N2CCOCC2)cnn1-c1ccccc1)c1ccc(F)cc1,i

Other compounds follow:
Molecule,Mtb H37Rv
CC(Sc1nnc(Cc2cccc(C(F)(F)F)c2)n1-c1ccccc1)C(=O)Nc1nccs1 (stereo unspecified),i
Cc1c(CC(=O)N2CCCCC2)c(=O)oc2cc(O)c(Cl)cc12,i
COc1c(C)cc(C(C)(C)C)cc1C=O,i
COc1cc(CO)cc(I)c1OCc1cccc(C)c1,38%
CCOc1cccc(C(=O)Nc2cccc(-c3nc4ccccc4[nH]3)c2C)c1,i
CCCC(=O)Nc1ccc2c(c1)ncn2-c1ccc(OC)cc1,0%
O=C(CC1NCCNC1=O)Nc1ccccc1Cl (stereo unspecified),i
COc1ccc(C(=O)Nc2ccccc2N2CCOCC2)cc1[N+](=O)[O-],i
CC(NS(=O)(=O)c1cccs1)c1ccccc1 (stereo unspecified),i
Cc1c(OCC(=O)c2ccc(N3CCCC3)cc2)ccc2c3c(c(=O)oc12)CCC3,i
Cc1onc(-c2ccccc2Cl)c1C(=O)Nc1ncc([N+](=O)[O-])s1,i
Cc1cc(OC(=O)C2COc3ccccc3O2)cc(C)c1Cl (stereo unspecified),i
O=C(O)C1CCN(C(=O)c2cccs2)CC1,i
Cc1ccc(SCc2nnc(NC(=O)c3ccc(C)cc3)s2)cc1,i
CCN(CC)Cc1c(O)ccc2cc(-c3nc4ccccc4[nH]3)c(=O)oc12,i

Remaining list, next part:
Molecule,Mtb H37Rv
Clc1ccccc1-c1nn2c(-c3ccncc3)nnc2s1,i
O=C(Cn1cnc2ccccc2c1=O)Nc1ccccc1Cl,1%
COc1ccccc1OCC#CCNCC1CCCO1 (stereo unspecified),i
C=CCN(CC=C)C(=O)Nc1cccc(C(C)=O)c1,i
CCC(C(=O)Nc1ccccc1NC(C)=O)c1ccccc1 (stereo unspecified),i
COc1cccc(NC(=O)COc2c(C)ccc(C)c2C)c1,u
Cc1n[nH]c(C)c1C(=O)CC1(O)C(=O)Nc2ccc(Br)cc21 (stereo unspecified),i
COc1ccc(/C(N)=N/OC(=O)c2ccc(F)cc2)cc1OC,i
N#CCc1ccc(NC(=O)c2ccco2)cc1,i
CC(=O)C1=C(c2ccccc2)NC(=S)NC1c1cc(Br)ccc1OCC#N (stereo unspecified),i
CCOC(=O)c1ccc(NC(=S)NNC(=O)c2cccc(OC(F)(F)C(F)F)c2)cc1,0%
Nc1ccc(Oc2ccc(Cl)cc2)cc1,14%
COc1ccc(-c2cc(C(F)(F)F)nc(SCCC(=O)Nc3cc(F)ccc3F)n2)cc1,i
CC(C(=O)NCc1ccncc1)N(c1ccc(Cl)cc1)S(C)(=O)=O (stereo unspecified),i
Cc1sc2ncnc(SCC(=O)Nc3ccccc3)c2c1-c1ccccc1,i

Remaining list, next part.
Molecule,Mtb H37Rv
CC(=O)c1c(C)cc(C)c(CSc2nc3ccc(N)cc3s2)c1C,i
COC(=O)c1cc(OC)c(OC)cc1NC(=O)CN1CCOCC1,i
O=C(C1CCCN(S(=O)(=O)c2ccccc2)C1)N1CCN(c2ccc(F)cc2)CC1 (stereo unspecified),i
Cc1ccc(CSc2nc3c(c(=O)[nH]2)C(c2ccc(N(C)C)cc2)C2=C(CCCC2=O)N3)cc1 (stereo unspecified),i
C=CCNC(=O)C(=O)Nc1ccccc1OCC,i
Cc1nn(CCCNC(=S)Nc2ccccc2C(F)(F)F)c(C)c1Br,i
Cn1nc(-c2ccc(N3CCCCC3)c(NC(=O)c3ccco3)c2)c2ccccc2c1=O,i
COC(=O)COc1ccc(S(=O)(=O)Nc2cccc(Cl)c2C)cc1,9.7µg/mL*
O=C(O)c1cc(NC(=O)c2ccccc2F)cc(NC(=O)c2ccccc2F)c1,i
CC(=O)Nc1ccc(NC(=O)C2(C)CC2(Cl)Cl)cc1 (stereo unspecified),i
O=C(Nc1cccc(F)c1)C1CCN(C(=O)c2ccccc2Cl)CC1,i
CN(C)S(=O)(=O)c1ccc(C(=O)Nc2ccc(F)c(Cl)c2)cc1,i
CS(=O)(=O)N(Cc1ccccc1)c1ccc(C(=O)N[C@@H]2CCCC[C@H]2O)cc1,i
C=CCc1cccc2cc(C(=O)NCc3ccc(C(=O)OCC)o3)c(=O)oc12,i
CCOC(=O)c1sc(NC(=O)CSc2nc3c(cc2C#N)CCC3)c(C#N)c1C,2%
